Arbovirus anti – antivirals against arbovirus infection, primary screen, cell-based, full library, 10K replicate subset. arbovirus infection cell-based antiviral screen. inhibition, % at 10 µM. 200,000 tested, 0.37% active. AID 1251, 2008;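 active means inhibition from about 30%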;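 further: bluetongue infection of BSR cells; cell survival read as ATP light after 72 h; 0% = infected wells without compound and 100% = uninfected wells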
RecA splice inh – Mtb RecA intein splicing inhibitors, primary screen, biochemical, fluorescence, HTS; 290,000 tested, 0.75% active; inhibition, %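 (about 9 µM by stock and volumes)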; cell-free RecA intein splicing; AID 2221, 2009; in the data active means inhibition above about 30%; inconclusive means no clear call, values can overlap the other calls;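 further: 0% = vehicle wells and 100% = reference inhibitor control wells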
Target sequence (P9WHJ3 whole entry, looked up, canonical isoform): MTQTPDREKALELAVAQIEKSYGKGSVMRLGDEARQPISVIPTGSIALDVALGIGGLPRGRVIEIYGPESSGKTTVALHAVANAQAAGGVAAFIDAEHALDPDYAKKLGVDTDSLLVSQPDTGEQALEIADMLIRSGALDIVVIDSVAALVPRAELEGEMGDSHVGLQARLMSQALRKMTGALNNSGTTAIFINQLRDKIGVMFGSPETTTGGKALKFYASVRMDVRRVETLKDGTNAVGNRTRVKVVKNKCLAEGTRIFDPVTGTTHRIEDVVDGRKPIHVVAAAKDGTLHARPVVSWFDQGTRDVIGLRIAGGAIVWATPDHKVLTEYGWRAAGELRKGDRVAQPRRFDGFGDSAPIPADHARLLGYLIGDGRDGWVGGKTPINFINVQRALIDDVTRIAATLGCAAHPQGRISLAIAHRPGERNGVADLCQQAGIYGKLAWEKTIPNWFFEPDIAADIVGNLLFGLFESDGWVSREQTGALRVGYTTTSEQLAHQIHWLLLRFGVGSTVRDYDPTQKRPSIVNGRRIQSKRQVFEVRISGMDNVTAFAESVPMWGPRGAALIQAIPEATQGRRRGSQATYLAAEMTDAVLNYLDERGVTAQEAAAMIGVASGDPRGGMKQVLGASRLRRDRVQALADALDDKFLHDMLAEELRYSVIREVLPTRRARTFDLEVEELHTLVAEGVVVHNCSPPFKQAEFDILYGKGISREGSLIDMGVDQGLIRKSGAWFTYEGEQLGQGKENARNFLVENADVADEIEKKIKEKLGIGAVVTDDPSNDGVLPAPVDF
Mtb betalactam – beta-lactam sensitization of Mtb H37Rv, H37Rv. M. tuberculosis H37Rv growth with meropenem, percent inhibition; hits of this screen are not shown here. inhibition, % at 25 µM. 330,000 tested, 0.27% active;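 active means about 74% or more and at least 40 points above the plate without the antibiotic, then above 30% in a dose series; inconclusive means first-round hits that could not be retested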;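 further: growth measured after seven days incubation then overnight dye step; 0% = bacteria only wells and 100% = bacteria with antibiotic; twin plates without the antibiotic show which effects depend on it; some results filed as inactive read as strong as hits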
Mtb H37Rv – M. tuberculosis H37Rv growth inhibitors, H37Rv strain (AID 1626); M. tuberculosis H37Rv growth inhibition; higher % means a stronger effect; 220,000 tested, 0.95% active; inhibition, % at 10 µM, or IC50 in µM where a hit was titrated;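 active means confirmed in a dose series; inconclusive means inhibition above 80% but not taken into the dose series; inactive means below 80% or under 30% at every dose of the series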;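 further: bacteria incubated seven days before Alamar blue readout; 0% = bacteria only wells and 100% = bacteria with antibiotic wells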
YopH PTP inh – YopH tyrosine phosphatase inhibitors, primary screen, biochemical, fluorescence Ex485/Em525. inhibition, %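 (about 10 µM by stock and volumes)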. YopH tyrosine phosphatase [Yersinia enterocolitica]. 140,000 tested, 0.16% active. AID 898, 2007;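 active means inhibition of 50% or more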;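 further: controls were vehicle for no effect and minimum signal wells for full effect; inactives centre near -20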
Arbovirus anti repeat – recorded beside Arbovirus anti, whose call it bears; inhibition, %; measured here: 10K subset replicate screen; many hits read low in the repeat;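 first of two repeat runs on a subset; 0% = infected and 100% = uninfected wells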
* = called active by the depositor; ? = inconclusive; . = no result given.

SMILES	Arbovirus anti	RecA splice inh	Mtb betalactam	Mtb H37Rv	YopH PTP inh	others
CCCCNC(=O)COc1ccccc1C(=O)c1cc(C#N)c(=O)n(CCOC)c1	1	-13	2	-9%	-27
O=C(Cn1nc(C(F)(F)F)c2c1CCC2)NCc1ccc(Cl)cc1	-7	2.5	-19	0%	-25
Cc1ccc(S(=O)(=O)N2CCOCC2)cc1NC(=O)c1cc(-c2ccccn2)nc2ccccc12	.	.	2	-2%	.
C=CCn1c(=O)[nH]c2cc(C(=O)N3CCN(c4ccc(C(C)=O)cc4)CC3)ccc2c1=O	6	2.5	3	.	-10
CCN1C(=O)[C@@H]2Cc3c([nH]c4ccccc34)C(c3ccc(OC)cc3)N2C1=S (some centres undefined)	.	0.2	49	.	.
COc1ccc(NC(=O)C23CC4CC(C2)CC(n2cnc(Br)n2)(C4)C3)cc1Cl	15	3.3	0	.	-22
CCOC(=O)N1CCc2c(sc3c2c(=O)n(Cc2ccccc2)c(=O)n3Cc2cccc(C)c2)C1	-4	7.8	-11	.	-26
CCc1ccccc1NC(=O)c1cc(-c2cccs2)on1	.	-5.0	3	.	.
COC(=O)CSc1snnc1-c1ccc(F)cc1	7	-0.1	87	-1%	12
Cc1ccc(Nc2nc(N/N=C\c3ccc4c(c3)OCO4)nc(N3CCOCC3)n2)cc1	-23	.	88	53%	.
Nc1nc(-c2ccc(Cl)cc2)nn1C(=O)c1ccco1	12	3.0	-6	-6%	.
O=C(NCc1ccncc1)/C(=C\c1ccc(F)cc1)NC(=O)c1ccccc1	-14	2.3	-1	-2%	-34
COc1ccc(CNS(=O)(=O)c2ccc(-c3cnc(C4CC4)o3)cc2)cc1	.	-2.8	7	.	.
COc1cc(/C=N/Nc2ccc(F)cc2F)cc(OC)c1O	-30	2.4	51	?	-19
Nc1cc(N)nc(SCC(=O)Nc2cc(S(=O)(=O)N3CCOCC3)ccc2Cl)n1	.	-4.0	-10	.	.
CCN1CCN(CCCOc2ccc(-c3ccccc3)cc2)CC1	-42	-1.3	7	24%	55*
O=S(=O)(c1cnccc1N1CCN(/N=C/c2ccc(Cl)cc2)CC1)N1CCCCC1	3	-1.4	-16	2%	-21
C#CCOCCOCCOCCNc1nc(N2CCN(C(=O)[C@H]([C@@H](C)CC)n3cc([C@@H](N)CC(C)C)nn3)CC2)nc(N2CCN(C(=O)[C@H]([C@@H](C)CC)n3cc([C@@H](N)CC(C)C)nn3)CC2)n1	-1	-0.7	-5	8%	.
COc1cc(C(=O)Nc2nnc(CC(=O)NCc3ccccc3)s2)cc(OC)c1OC	.	-2.0	4	.	.
Cc1ccc(C(=O)CC2(O)C(=O)N(CCc3ccccc3)c3ccc(Br)cc32)o1 (centres undefined)	-12	12	2	9%	-22
CCCOc1ccc(-c2c(C(=O)N/N=C(\C)COc3ccccc3)nnn2-c2nonc2N)cc1	.	-0.9	-3	.	.
CC1(C(=O)O)CCC(C(=O)NC2CCCCC2)C1(C)C (centres undefined)	7	-0.6	3	-10%	-4
Cc1ccc(C)c2sc(NC(=O)C3CC3)nc12	.	-4.2	4	.	.
O=C1C=C(N2CCOCC2)CO1	.	-1.2	-5	-6%	.

Gathered by group: the entries above containing a Cl atom
SMILES	Arbovirus anti	RecA splice inh	Mtb betalactam	Mtb H37Rv	YopH PTP inh	others
O=C(Cn1nc(C(F)(F)F)c2c1CCC2)NCc1ccc(Cl)cc1	-7	2.5	-19	0%	-25
COc1ccc(NC(=O)C23CC4CC(C2)CC(n2cnc(Br)n2)(C4)C3)cc1Cl	15	3.3	0	.	-22
Nc1nc(-c2ccc(Cl)cc2)nn1C(=O)c1ccco1	12	3.0	-6	-6%	.
Nc1cc(N)nc(SCC(=O)Nc2cc(S(=O)(=O)N3CCOCC3)ccc2Cl)n1	.	-4.0	-10	.	.
O=S(=O)(c1cnccc1N1CCN(/N=C/c2ccc(Cl)cc2)CC1)N1CCCCC1	3	-1.4	-16	2%	-21

More results:
SMILES	Arbovirus anti	RecA splice inh	Mtb betalactam	Mtb H37Rv	YopH PTP inh	others
COC(=O)CCN1CCN(S(=O)(=O)c2ccccc2Br)CC1	1	-0.1	10	3%	.
Cc1nn2c(Nc3ccccc3)c3c(nc2c1-c1ccccc1)CCC3	-2	-4.7	9	8%	-17
O=C(COC(=O)CNC(=O)c1sc2ccccc2c1Cl)NC1CCS(=O)(=O)C1 (centres undefined)	.	2.0	-2	.	.
CC1CCN(C(=O)CCCN2C(=O)c3cccnc3Oc3ccc(Cl)cc32)CC1	.	3.0	?	.	.
N=c1ccn(Cc2ccc(F)cc2)cc1	.	0.8	-15	6%	.
O=C(O)COc1ccccc1/C=C1\C(=O)Nc2ccc(Br)cc21	.	1.4	-4	.	.
CN(C)C(=S)Nc1ccc(Br)c(Cl)c1	.	1.5	51	-3%	.
Cc1ccc(S(=O)(=O)N/N=C/c2ccc(OCC(=O)Nc3ccccc3Cl)cc2)cc1	-3	4.3	34	.	-51
c1cncc(-c2nc(NCCCN3CCOCC3)c3c4c(sc3n2)CCC4)c1	16	-0.5	0	1%	.
N=C1/C(=C/c2ccco2)C(=O)N=C2SC(CC(=O)N3CCCC3)=NN12	.	0.2	1	.	.
Cn1cccc1CNC1CCCC1	4	-2.5	0	-8%	-25
O=C(O)CCC(=O)Nc1ccccc1C(=O)NCCc1ccccc1	6	-1.2	5	1%	-26
CCn1c(O)c(C=NC2CCCC(C)C2C)sc1=S (centres undefined)	.	-0.3	100	?	.
COc1cccc2c1cc1c(=O)n(CC(=O)NCCCN3CCN(C)CC3)nc(C)n12	.	-0.8	-1	.	.
Cc1cc(C)cc(NC(=O)C(OC(=O)c2sccc2C)c2ccccc2)c1 (centres undefined)	9	-3.1	5	2%	-39
Cc1ccc2cc3c(N)c(C(=O)N4CCOCC4)sc3nc2c1	-2	-6.1	1	.	-38
COCC(C)n1c(C)cc(C(=O)CSc2nc(C)c(C)c(C)n2)c1C (centres undefined)	.	0.3	-4	-4%	.
CC(=O)c1ccc(OCc2cc(C(=O)N3CCN4CCCC4C3)no2)cc1 (centres undefined)	.	-3.2	-2	.	.
CCCCn1c(=O)[nH]c(=O)c2c1nc(CN1C(=O)c3ccccc3S1(=O)=O)n2CCC	-1	-0.9	-2	-2%	-44
CCNc1nc(Oc2ccc(C(=O)OC)cc2)nc(N2CCOCC2)n1	.	0.7	1	8%	.
COc1ccc(NC(=O)c2ccc(Cl)c(NC(=O)c3ccncc3)c2)cc1	2	-1.3	-3	3%	.
CNC(=O)c1nnsc1S(=O)c1ccc(Cl)cc1 (centres undefined)	-38	40*	.	79%	.
O=c1[nH]c(=S)n(CCC2=CCCCC2)c(O)c1C=NCCCn1ccnc1	6	1.7	-19	-3%	-22
O=C(Nc1ccc2c(c1)CCC2)c1cnc(Cl)c(Cl)c1	8	0.7	50	53%	.
Cn1c(SCC(=O)N2CCCC2)nc2ccccc21	13	2.2	10	3%	.
COc1ccc(C(OC(=O)c2ccco2)C(=O)NC2CCCCC2)cc1 (centres undefined)	-4	-1.0	-1	-6%	-11
CC(C)CCn1c(SCC(=O)c2ccccc2)nc2c1c(=O)[nH]c(=O)n2C	4	-2.9	5	0%	-32
COc1ccc(Oc2cc(C)c3cccc(C)c3n2)cc1	0	9.8	0	12%	-25
Cc1ccc(NC(=O)NC2(C(=O)NCc3ccccc3)CCCCC2)cc1	4	-2.3	-5	3%	-19
CCOc1ccc(C(=O)Nc2ccc3c(c2)OCCO3)cc1[N+](=O)[O-]	-2	-6.8	-1	6%	.
COc1cc(OC)nc(NC(=O)NS(=O)(=O)c2ccccc2Cl)n1	.	0.1	2	-3%	.
NNC(=S)NCc1ccc2c(c1)OCO2	4	-0.2	100	-2%	-16
Cc1ccc(C(CNC(=O)Nc2ccc(Cl)cc2)N2CCN(C)CC2)cc1 (centres undefined)	.	1.9	4	.	.
Cc1ccc(S(=O)(=O)N(C)C)cc1NC(=O)COC(=O)C1CC1	.	0.7	-1	.	.
CCOC(=O)CNC(=O)CNC(=O)c1nn(-c2ccc(OC)c(OC)c2)c(=O)c2ccccc12	.	-2.4	20	.	.
O=C(NCc1ccc(/C=N\NC(=O)C(=O)Nc2ccccc2Br)o1)C(=O)Nc1ccccc1	.	-1.8	-4	.	.
Cc1ccccc1N(C(=O)c1csnn1)C(C(=O)NC(C)(C)C)c1cccs1 (centres undefined)	2	-0.9	-6	-3%	.
COc1ccc(-c2nc(SC)n(S(=O)(=O)c3ccccc3)n2)cc1	2	-5.0	2	-3%	-25
O=C(N/N=C/c1ccc(O)cc1)c1nc(-c2ccccc2)n(-c2ccccc2)n1	-1	-6.4	5	9%	-51
CCCN(CCC)C(=O)Cn1c2ccccc2c2nc(=O)cc(C)n21	3	1.3	-6	.	-45
CC(=O)ONC(=Nc1ccccc1)c1nonc1N	.	-1.4	-3	1%	.
O=C1CC(c2cccs2)c2cc3c(cc2N1)OCCO3 (centres undefined)	-7	-2.6	-5	8%	-12
COc1ccc(CC(=O)Nc2cc(S(=O)(=O)N3CCCCC3)ccc2C)cc1OC	11	-3.7	-5	2%	.
CC(=O)N1CCN(CC(=O)Nc2ccc(C)c(S(=O)(=O)N(C)C)c2)CC1	12	0.1	3	-10%	.
CCN(CC)C(=O)c1cccc2nc3ccccc3nc12	.	0.6	-2	-4%	.
Cc1c(=O)n(OCc2cccc(F)c2)c2ccccc2[n+]1[O-]	-1	-1.2	-21	-14%	-7
CCN1CC=C2C(C#N)=C(N)C(C#N)(C#N)[C@H](c3cccc(OC)c3OC)[C@H]2C1	-7	-12	-6	-4%	-10
COc1ccc(CC(=O)N/N=C(\C)c2ccc(Br)s2)cc1	.	-2.4	8	.	.
COc1ccc(CC(=O)OCC(=O)Nc2ccc3c(c2)OCO3)cc1	2	-2.8	-2	-4%	.
CN(C)c1oc(COc2ccc(F)cc2)nc1C#N	3	-1.6	1	1%	-8
CN(C)C(=O)Oc1ccc(-c2cn3cc(C(F)(F)F)ccc3n2)cc1	-7	-3.4	2	5%	-20
O=C(CC1C(=O)NCCN1Cc1ccccc1)NCCCOc1cccnc1 (centres undefined)	.	-1.2	-9	.	.
COc1ccc(C(=O)NCCSCc2ccccc2Cl)cc1OC	.	3.6	-3	.	.
CC(=O)Nc1ccc(NC(=O)C(C)OC(=O)c2ccccc2NS(=O)(=O)c2cccs2)cc1 (centres undefined)	.	2.6	-4	4%	.
COCC(=O)N(C)C1(c2nnnn2CCOC(=O)Nc2ccc(Cl)cc2)CCCCC1	8	0.0	5	-1%	.
Oc1ccc(/C=N/n2c(COc3ccccc3)n[nH]c2=S)c(O)c1	.	-1.1	-8	.	.
CCOC(=O)c1c(/N=C/c2ccc(O)cc2O)sc2c1CCC2	-16	-1.2	2	3%	-16
COc1ccccc1CCNC(=O)CCSc1nc(-c2ccco2)cc(C(F)(F)F)n1	-4	2.8	0	8%	-30
CCOCCCNC(=O)c1ccc2c(c1)N(Cc1ccccc1)C(=O)CS2=O (centres undefined)	-3	-0.3	-4	-1%	-26	Arbovirus anti repeat=6
Cc1ccc(OCC(=O)Nc2ccccc2N2CCOCC2)c(C)c1	8	7.3	8	8%	-41

(more compounds)
SMILES	Arbovirus anti	RecA splice inh	Mtb betalactam	Mtb H37Rv	YopH PTP inh	others
O=C(NCc1ccccc1Cl)C1CCN(c2cnccn2)CC1	10	-4.7	-6	4%	.
CCOC(=O)N1CCN(c2cc(=O)n(-c3ccc(Br)cc3)c(=O)[nH]2)CC1	17	-1.1	-5	0%	-32
c1ccc(-c2csc(Cc3nnc4n3CCCCC4)n2)cc1	3	2.3	-14	-8%	2
Cc1ccc(OCC(=O)NNC(=S)NC(=O)C(C)(C)C)c(Br)c1	-27	2.6	99	?	.
CCN(c1ccccc1)S(=O)(=O)c1nnc(NC(=O)C(C)(C)C)s1	.	-0.3	4	.	.
COc1ccc(OC)c(S(=O)(=O)N2CCN(c3ccccc3)CC2)c1	.	5.3	3	.	.
Cc1ccc(S(=O)(=O)Nc2cc(=O)[nH]c(SCC(=O)Nc3cccc(C)c3)n2)cc1	.	8.9	-4	-1%	.
C#CCOCCOCCOCCNc1nc(N2CCN(C(=O)[C@H]([C@@H](C)CC)n3cc(CCCN=C(N)N)nn3)CC2)nc(N2CCN(C(=O)[C@H](C)n3cc(CCCN=C(N)N)nn3)CC2)n1	-4	2.1	-6	.	-1
CSc1ccc(-c2nc3cnccn3c2Nc2ccc3c(c2)OCO3)cc1	-23	9.3	21	5%	-15
CC(=O)N(C)c1cccc([N+](=O)[O-])c1	8	-2.8	1	0%	.
Cc1[nH][nH]c(=O)c1C(c1cc2c(cc1Br)OCO2)c1c(C)[nH][nH]c1=O	-7	95*	-3	-8%	.
COc1ccc(CN2CCN(c3ncccn3)CC2)c(OC)c1	-4	0.1	-1	-8%	-25	Arbovirus anti repeat=-2

Compound activity (PubChem)

This is a subset, so the mix of outcomes need not match the whole.
